Assay outcomes: PubChem BioAssay, National Center for Advancing Translational Sciences (NCATS)
VDR inhibitor – blocks the human vitamin D receptor. hit rate 0.93% among 400,000. Potency, µM, for inactives: max response, negative = inhibition, hits mostly inhibitors. VDR-SRC2-3 peptide fluorescence polarization, 2 h. P11473; active = well fitted inhibition curve with a large enough effect; inconclusive = small, poorly fitted or top-dose-only effect, or another doubt; inactive = no such curve, though single readings can be large or run the other way; also: series mostly up to about 120 µM
Target sequence (P11473 whole entry, looked up): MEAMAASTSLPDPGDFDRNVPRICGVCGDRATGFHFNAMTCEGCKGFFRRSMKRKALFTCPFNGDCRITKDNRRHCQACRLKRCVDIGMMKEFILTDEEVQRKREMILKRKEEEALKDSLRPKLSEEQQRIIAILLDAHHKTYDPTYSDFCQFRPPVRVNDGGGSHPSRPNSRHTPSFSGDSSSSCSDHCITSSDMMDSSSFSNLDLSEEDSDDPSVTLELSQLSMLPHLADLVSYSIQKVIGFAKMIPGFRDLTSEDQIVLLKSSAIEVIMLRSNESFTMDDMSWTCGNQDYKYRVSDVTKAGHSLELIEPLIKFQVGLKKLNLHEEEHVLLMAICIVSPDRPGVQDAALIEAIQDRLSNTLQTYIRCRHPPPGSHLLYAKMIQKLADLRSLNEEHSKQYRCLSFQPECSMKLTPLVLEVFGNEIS
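Two reagent solutions held at 4 deg C in the dark were dispensed, compounds pinned at 23 nl, and the mixture incubated 2 h at room temperature. Read-out: fluorescence polarization of VDR–SRC2-3 peptide binding.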
An asterisk follows results filed as active; ? = inconclusive; & = joins results of further samples; [ ] = remark or other dose. % is scaled to controls: 0 for no effect and ±100 for the full control effect; potency is read from the fitted curve at half-maximal effect. These rows are one share of the data; count on the stated rates, not on these rows.

SMILES	VDR inhibitor
CCCCC(=O)N1C/C=C\C(c2ccc(OC)cc2)N(Cc2ccc(F)cc2)C(=O)C1 (configuration not stated)	-8%
O=S(=O)(Nc1ccc(-n2cccc2)cc1)c1ccccc1	-1%
COc1cccc(C(=O)NNC(=O)c2ccccc2)c1	-2%
N#CCCCn1c(=O)oc2ccccc21	-12%
COc1ccc(/C=C/C(=O)Oc2ccc(C)c(C)c2)cc1OC	-10%
Cc1c(C(=O)C(=O)N2c3ccc(F)cc3CCC2C)c2ccccc2n1C (configuration not stated)	-13%
CN(C)C(CNC(=O)c1ccc(NC(=O)CC#N)cc1)c1ccccc1 (configuration not stated)	-4%
N#Cc1cccc(NC(=O)N2CCCC3(CCN(C(=O)c4cc(C(F)(F)F)cc(C(F)(F)F)c4)CC3)C2)c1	-6%
Cc1ccccc1Cn1c(=N)n(CC(=O)c2ccc([N+](=O)[O-])cc2)c2ccccc21	-17%
COC(=O)CC1c2ccccc2C=C(C2CC2)N1C(=O)OC (configuration not stated)	12%
COc1cc(N2CCCC2)ccc1[N+](=O)[O-]	11%
COc1cc(/C=C/C(=O)OCC(=O)Nc2ccc(S(=O)(=O)N3CCCC3)cc2)ccc1O	1%
O=C(Cn1nnc2ccccc2c1=O)Nc1ccc2c(c1)CCC2	-13%
COc1ccc(C(=O)Nc2nccs2)cc1[N+](=O)[O-]	1%
CCN(CC)CC(=O)NC12CC3CC(CC(C3)C1)C2	-3%
Cn1c(CCC(=O)OCC(=O)NCc2ccc3c(c2)OCO3)nc(=O)c2ccccc21	8%
CC(C(=O)Nc1cccnc1)C1Sc2ccccc2NC1=O (configuration not stated)	-12%
c1ccc(COc2cccc(CN3CCCCC3)c2)cc1	-9%
COc1ccc(C(C(=O)NC(C)(C)C)N(C(=O)CNC(=O)c2cccs2)c2ccc(C)cc2)cc1OC (configuration not stated)	9%
CCN(CC)c1ccc(/C=N/NC(=O)c2nnn(-c3nonc3N)c2-c2ccc(C)cc2)cc1	-10%
COCCOc1cc(NC(=O)CS(=O)CC(=O)N(C)C)c(Cl)cc1Cl (configuration not stated)	11%
Cn1c(=O)[nH]c(=O)c2c1nc(NCCCO)n2Cc1ccc(F)cc1	4%
CC12CCC(C(=O)N(NC(=O)c3cccnc3)C1=O)C2(C)C (configuration not stated)	-7%
Cc1cccc(NC(=O)c2nc[nH]c2C(=O)N[C@@H](CCCCNC(=O)OC(C)(C)C)C(=O)OC(C)(C)C)c1	-1%
CCc1ccc(-c2cc(C)no2)cc1S(=O)(=O)NCc1ccco1	-1%&7%

2 entries from above, with values ahead of the structure.
VDR inhibitor,structure
12%,COC(=O)CC1c2ccccc2C=C(C2CC2)N1C(=O)OC (configuration not stated)
11%,COc1cc(N2CCCC2)ccc1[N+](=O)[O-]

The list goes on:
SMILES	VDR inhibitor
Cc1ccccc1CCN(C(=O)CN1C(=O)c2ccccc2S1(=O)=O)C(C(=O)NCC1CCCO1)c1ccncc1 (configuration not stated)	-5%
Cc1ccc(-c2nn(C)c(=O)c3ccccc23)cc1CO	?
CC[C@H]1OC(=O)[C@H](C)[C@@H](O[C@H]2C[C@@](C)(OC)[C@@H](O)[C@H](C)O2)[C@H](C)[C@@H](O[C@@H]2O[C@H](C)C[C@H](N(C)C)[C@H]2O)[C@](C)(O)C[C@@H](C)[C@@H]2N[C@@H](COCCOC)O[C@H]([C@H]2C)[C@]1(C)O	-1%
Cc1ccc(CSc2nc3ccsc3c(=O)n2Cc2ccccn2)cc1	-11%
O=C(NC(Nc1nc2ccc([N+](=O)[O-])cc2s1)(C(F)(F)F)C(F)(F)F)c1ccccc1	6%
O=C(COC(=O)c1ccc([N+](=O)[O-])cc1Cl)NC(=O)c1ccccc1	-12%
CC(C)c1ccccc1NC(=S)N(C)C	0%
COc1ccccc1Nc1nc(-c2cccc(N3C(=O)c4ccccc4C3=O)c2)cs1	-6%
O=C(CCCN1CCC(C(=O)c2ccc(F)cc2)CC1)c1ccc(F)cc1	?
Cc1cc(C(F)(F)F)nn1CC(=O)NNC(=S)Nc1ccc(F)cc1	-3%
CC(=O)Nc1ccc(NC(=O)c2cc(=O)c3ccccc3o2)cc1	10%&15%
COc1cccc(CN2CC(C(=O)N(C)C3CCOCC3)CCC2=O)c1 (configuration not stated)	2%
CCOc1ccccc1N(C)S(=O)(=O)c1ccc2[nH]cc(C(=O)N(CCOC)CCOC)c(=O)c2c1	-9%
c1cnn(Cc2cnc(N3CCOCC3)s2)c1	3%
Cc1cc(C)c(NC(=O)c2cnn(C)c2)c(C)c1	-3%
CC(C)Cn1c(=O)c(C(=O)NCc2ccc3c(c2)OCO3)c(O)c2ccccc21	-17%
Cc1cccc(OCC(=O)N(Cc2cccs2)C2CCS(=O)(=O)C2)c1C (configuration not stated)	9%
CSc1cccc(NS(=O)(=O)c2ccccc2)c1	1%
O=C(CCNS(=O)(=O)c1ccccc1)N1CCN(c2ccccc2F)CC1	-9%
Cn1c(=O)n(-c2ccc3c(c2)OCO3)c2nc(-c3ccc(Cl)cc3)nc(C(N)=O)c21	3%
COc1cc(C(=O)N2CCN(S(=O)(=O)c3ccc(F)cc3)CC2)cc(OC)c1OC	11%
Cc1ccc(C(=O)NCCc2nnc3ccc(SCC(=O)Nc4cc(C)on4)nn23)cc1	-6%
Cc1cc(C)c(/C=C/c2onc(C)c2S(=O)(=O)N2CCC(C(=O)Nc3ccc(Cl)c(C(F)(F)F)c3)CC2)c(C)c1	5%
CN(C)C(=O)COC(=O)c1cccc(CN2C(=O)c3ccccc3C2=O)c1	-11%
CC(=O)c1c(C)nc2ccccc2c1N	0%
(continued)
SMILES	VDR inhibitor
COC(=O)C1=C(O)/C(=C\c2ccc(O)c(OC)c2)N=C1C	-9%
CCCCNC(=S)N(CCCN(C)C)Cc1cc2cc3c(cc2[nH]c1=O)OCO3	-4%
CC1Cc2cc(/C(O)=C3/C(=O)C(=O)N(CCCn4ccnc4)C3c3ccc(Br)cc3)ccc2O1 (configuration not stated)	-14%
O=C(Cn1cccc1C(=O)c1ccccc1)NCCN1CCOCC1	3%
COc1ccc(NC(=O)Cn2cnc3sc(C)c(S(=O)(=O)N4CCN(c5ccccc5OC)CC4)c3c2=O)cc1OC	-5%
Cc1cccc(OCCCC(=O)Nc2ccc(S(=O)(=O)Nc3ncccn3)cc2)c1C	7%
CSc1nn(Cc2ccc(Cl)cc2)c(N(C(C)=O)C(C)=O)c1S(=O)(=O)c1ccccc1	-11%
COc1ccc(NC(=O)C2CCCN(C(=O)c3ccc(Cl)cc3)C2)cc1S(=O)(=O)N(C)C (configuration not stated)	60%[activator]
CCC1CCCCN1C(=O)CSc1nc2c([nH]c3ccccc32)c(=O)n1C (configuration not stated)	1%
O=C(COc1ccc(S(=O)(=O)N2CCCCC2)cc1)NCc1cccnc1	5%
COc1ccc(COc2ccsc2C(=O)Nc2ccc(Cl)cc2)cc1	18%
Cc1[nH]c2ccc(C(C)C)cc2c1CC(=O)O	11%
O=C(Cn1cnc([N+](=O)[O-])n1)NC1CC1	-11%
Cc1ccc(/C(O)=C2\C(=O)C(=O)N(CCc3c[nH]c4ccccc34)C2c2cccnc2)cc1 (configuration not stated)	-8%
C#C[C@]1(OC(C)=O)CC[C@H]2[C@@H]3CCC4=C[C@@H](OC(C)=O)CC[C@@H]4[C@H]3CC[C@@]21C	-17%
CCn1c(SCC(=O)Nc2nc3c(s2)CCCC3)nnc1-c1ccccc1	2%
CCc1ccc2c(c1)NC(c1ccc(F)cc1)=NC(c1ccncc1)=N2	8%
COc1ccc(NC(=O)/C(C#N)=C\c2cc(OC)c(OCc3ccc(C(=O)O)cc3)cc2Br)cc1	?
O=C(Nc1nc2ccccc2s1)c1cc2c(s1)-c1ccccc1OC2	-15%
CCOC(=O)Cc1csc(NC(=S)NC(=O)CC(C)C)n1	-11%
CC(=O)Oc1ccc(N(C(C)=O)S(=O)(=O)c2cc([N+](=O)[O-])ccc2C)cc1	-9%
CCN(C(=O)COC(=O)CCC(=O)c1cccs1)c1c(N)n(Cc2ccccc2)c(=O)[nH]c1=O	-19%
CCC1Sc2ccc(S(=O)(=O)Nc3ccc(OC)c(OC)c3)cc2NC1=O (configuration not stated)	-6%
N#C/C(=C/c1ccc(-c2ccc([N+](=O)[O-])cc2)o1)C(=O)Nc1nc(-c2cccs2)cs1	24%
Cc1cc(Cl)ccc1NC(=O)c1cc(S(=O)(=O)N2CCOCC2)cn1C	3%

3 entries from above, set out differently:
SMILES,VDR inhibitor
CC(=O)Oc1ccc(N(C(C)=O)S(=O)(=O)c2cc([N+](=O)[O-])ccc2C)cc1,-9%
CCN(C(=O)COC(=O)CCC(=O)c1cccs1)c1c(N)n(Cc2ccccc2)c(=O)[nH]c1=O,-19%
CCC1Sc2ccc(S(=O)(=O)Nc3ccc(OC)c(OC)c3)cc2NC1=O (configuration not stated),-6%

Following part:
SMILES	VDR inhibitor
Cc1ccc2nnc(Cl)n2n1	9%
CCOc1ccc(OCCOC(=O)CNC(=O)c2ccc(Cl)cc2Cl)cc1	-19%
Cc1ccccc1Oc1ncccc1C(=O)/C(C#N)=C/N(C)C	-4%
Cn1c(=O)[nH]c2cc(-c3noc(-c4ccc(C#N)cc4)n3)ccc21	-9%
CN(C)c1ncc2ncc(=O)n(C3CC3)c2n1	-11%
C/C(=N\NC(=S)NC1CCCCC1)c1c(F)cccc1F	-18%
CCCn1c(SCc2cc(=O)oc3ccc4ccccc4c23)n[nH]c1=O	-15%
O=C(NC1CCCc2ccccc21)c1cccc(S(=O)(=O)N2CCN(c3ccccc3)CC2)c1 (configuration not stated)	4%
COc1ccc(-c2cn(CCO)nc2-c2ccc(OC)cc2)cc1	14%
COc1cccc(-c2nc(CS(=O)CC(=O)N3CCN(c4cccc(C(F)(F)F)c4)CC3)c(C)o2)c1 (configuration not stated)	11%
COc1ccccc1CNc1ncnc2onc(-c3ccc(Cl)cc3)c12	-19%
CNS(=O)(=O)c1ccc(N=Cc2c(C)[nH]n(-c3ccc(C)cc3C)c2=O)cc1	1%
COc1cc(NC(=O)CCCOc2cc(=O)n(C)c3ccccc23)cc(OC)c1OC	1%
CC(C)Cn1c(SCC(=O)Nc2ncccn2)nc2ccccc21	-8%
CCCCN1C(=O)c2ccc(C(=O)Nc3c(N)n(CCCC)c(=O)n(C)c3=O)cc2C1=O	-7%
O=C(CCc1nc(-c2ccccc2F)no1)NC1CCCCCC1	15%
COc1ccc(NC(=S)NCc2ccco2)c(OC)c1	0%
COc1ccc(S(=O)(=O)Nc2ccccc2C)cc1C(=O)N1CCOCC1	3%
O=C(CSc1ncc2c(n1)-c1ccccc1N(Cc1ccc(Cl)cc1)S2(=O)=O)c1ccccc1	10%
CC1CCC2CCCCC2N1C(=O)c1cc([N+](=O)[O-])cc([N+](=O)[O-])c1 (configuration not stated)	-8%
O=C(COc1ncnc2ccccc12)Nc1ccccc1[N+](=O)[O-]	-9%
O=C(CCCN1C(=O)c2ccccc2C1=O)N1CCc2ccccc2C1	15%
COc1ccc(C2CC(=O)Oc3c(C(CCN4CCN(c5ccccc5)CC4)c4ccc(N(C)C)cc4)c(OC)cc(OC)c32)cc1 (configuration not stated)	-14%&-2%
Cc1cccc(OCc2n[nH]c(=S)o2)c1C	-11%
CCc1ccccc1NC(=O)C1CCCN1S(=O)(=O)c1ccc2c(c1)n(C)c(=O)c(=O)n2C (configuration not stated)	7%

Structural class: those above with a COOH group.
SMILES	VDR inhibitor
Cc1[nH]c2ccc(C(C)C)cc2c1CC(=O)O	11%
COc1ccc(NC(=O)/C(C#N)=C\c2cc(OC)c(OCc3ccc(C(=O)O)cc3)cc2Br)cc1	?

Quoted from the listing, 5 compounds:
SMILES	VDR inhibitor
CCCCC(=O)N1C/C=C\C(c2ccc(OC)cc2)N(Cc2ccc(F)cc2)C(=O)C1 (configuration not stated)	-8%
O=S(=O)(Nc1ccc(-n2cccc2)cc1)c1ccccc1	-1%
COc1cccc(C(=O)NNC(=O)c2ccccc2)c1	-2%
N#CCCCn1c(=O)oc2ccccc21	-12%
COc1ccc(/C=C/C(=O)Oc2ccc(C)c(C)c2)cc1OC	-10%

(continued)
SMILES	VDR inhibitor
Cn1c(=O)c2c(nc(OC3CCCCCC3)n2C)n(C)c1=O	-5%
CCOc1ccc(N2CC(C(=O)OCC(=O)NCc3ccccc3)CC2=O)cc1 (configuration not stated)	3%
CS(=O)(=O)c1ccccc1C(=O)N1CCN(Cc2ccccc2)CC1	-18%
COc1ccc2c(c1)c1ncn(CCCN3CCOCC3)c(=O)c1n2C	17%
COc1cc(OC)cc(C(=O)OCn2nnc3ccccc3c2=O)c1	-8%
COc1ccc(S(=O)(=O)NCC2CCCN(C(=O)CCC(F)(F)F)C2)cc1 (configuration not stated)	11%
CC(=O)Nc1ccc(OS(=O)(=O)c2cc(Cl)ccc2C)cc1	-9%
CNC(=O)c1ccccc1S(=O)c1ccccc1COC(C)=O (configuration not stated)	-11%
O=C(CCCn1c(SCC(=O)c2ccc(O)c(O)c2)nc2ccccc2c1=O)NCC1CCCO1 (configuration not stated)	14%
Cc1nc(NC(=O)c2cccnc2)ccc1Br	-7%
Cc1nc2c(S(=O)(=O)c3ccccc3)cnn2c(C)c1C	-10%
CC(C)(C)c1ccc(C(=O)NCCc2ccccc2)cc1	-5%
Cc1ccc2cc(CCNC(=O)c3c(-c4ccccc4Cl)noc3C)c(=O)[nH]c2c1	-9%
O=c1[nH]c(N/N=C\c2ccc(F)cc2)nc2ccccc12	-18%
c1ccc(-c2cnc(-c3ccccn3)nn2)cc1	-9%
CC(=O)c1ccc(-n2nncc2C)cc1	-4%
O=C(Cc1ccc(Cl)cc1)Nc1ccc2oc(-c3ccc(F)cc3)nc2c1	25%
COc1ccc(C(=O)C2CCCN(C(=O)c3cc4nc(C)cc(C)n4n3)C2)cc1F (configuration not stated)	-12%
CCOC(=O)C1=C(C)NC(C)=C(C(=O)OCC)C1C(=O)OCC(=O)c1ccc2c(c1)OCCO2	20%
CN=C(Nc1ccccc1)SC1CC(=O)N(c2cccc(OC)c2)C1=O (configuration not stated)	-7%
